GCN5L2 inh: qHTS Assay for Inhibitors of GCN5L2 | Histone acetyltransferase KAT2A (Homo sapiens), Q92830 | GCN5L2 HAT assay, ThioGlo1 CoA-SH fluorescence | Potency, µM (highest dose often 58.9 µM), inactives show top-dose activity change, negative = inhibition, hits mostly inhibitors | 390,000 compounds, 0.21% hits | AID 504327, 2011
Target sequence (Q92830 whole entry, looked up): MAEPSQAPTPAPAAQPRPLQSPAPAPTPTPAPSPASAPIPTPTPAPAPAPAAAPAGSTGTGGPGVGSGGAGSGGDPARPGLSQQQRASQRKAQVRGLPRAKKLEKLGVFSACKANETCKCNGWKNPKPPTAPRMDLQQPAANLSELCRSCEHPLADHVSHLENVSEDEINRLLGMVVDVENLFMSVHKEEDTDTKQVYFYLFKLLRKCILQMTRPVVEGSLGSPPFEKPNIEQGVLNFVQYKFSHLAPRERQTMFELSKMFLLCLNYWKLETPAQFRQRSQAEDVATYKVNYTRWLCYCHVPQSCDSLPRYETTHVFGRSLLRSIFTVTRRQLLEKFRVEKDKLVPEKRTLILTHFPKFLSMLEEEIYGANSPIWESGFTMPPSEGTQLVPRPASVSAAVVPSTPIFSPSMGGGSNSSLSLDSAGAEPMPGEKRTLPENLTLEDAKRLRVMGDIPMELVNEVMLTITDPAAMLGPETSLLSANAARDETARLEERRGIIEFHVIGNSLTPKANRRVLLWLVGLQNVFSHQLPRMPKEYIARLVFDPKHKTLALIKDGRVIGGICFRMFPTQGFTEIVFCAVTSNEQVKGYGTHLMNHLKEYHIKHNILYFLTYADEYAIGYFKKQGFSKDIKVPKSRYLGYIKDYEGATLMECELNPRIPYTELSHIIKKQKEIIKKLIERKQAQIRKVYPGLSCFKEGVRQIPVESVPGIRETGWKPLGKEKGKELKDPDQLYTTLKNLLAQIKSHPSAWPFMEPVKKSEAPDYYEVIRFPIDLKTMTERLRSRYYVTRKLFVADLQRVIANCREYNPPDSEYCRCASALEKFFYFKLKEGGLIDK
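Fluorescence readout, Ex340nm/Em540nm: ThioGlo1 (50uM final) reacts with free CoA thiol released as 20nM GCN5L2 acetylates H3(1-25) peptide (75uM) using acetyl-CoA (70uM). Compound and enzyme sat 15 min beforehand; 20 min room-temperature reaction.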
N370S GC mod: qHTS Assay for Inhibitors and Activators of N370S glucocerebrosidase as a Potential Chaperone Treatment of Gaucher Disease; Potency, µM (titrated, usually from 59.4 µM), for the others: at the highest dose activity change, negative = inhibition, most hits filed as inhibitors; Lysosomal acid glucosylceramidase (Homo sapiens), P04062; N370S GC spleen homogenate, 4MU-glucoside fluorescence; 330,000 compounds, 0.092% hits;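 also: 0% = full enzyme activity and -100% = no enzyme basal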
* marks the source's active call; other numbers are inactive results; ? = inconclusive; . = not tested or not shown; & = joins results of further samples; [ ] = dose if it differs, or a comment. Calls follow the shape of the dose curve; as a rule, active = well fitted curve in the direction sought with a large enough effect; inconclusive = small, poorly fitted or top-dose-only effect, or another doubt; inactive = no such curve, though single readings can be large; an effect the other way counts as inactive or inconclusive. Unless noted, % is scaled to controls: 0 for no effect and ±100 for the full control effect; potency is read from the fitted curve at half-maximal effect.

Order of results – GCN5L2 inh, N370S GC mod
- COc1ccc(C2SCC(=O)Nc3c2c(=O)[nH]n3C2CCCCC2)cc1 (configuration not stated)
    1.4%, -1.2%
- CCOc1cc(C(=O)N2CCC3(CC2)OCCO3)cc(OCC)c1OCC
    -26.0%, -0.3%
- CNC(=O)O/N=C(\N)Cc1csc2ccccc12
    -0.1%, -8.0%
- C[N+]1(CC(COCc2ccccc2)OC(=O)Cc2ccccc2)CCOCC1 (configuration not stated)
    -10.4%, 4.4%
- CC(=O)c1ccc(OC(C)C)c(Cc2c(O)[nH]c(=S)[nH]c2=O)c1
    ?, -0.4%
- C[C@]12CC[C@H](OC(=O)CCC(=O)O)CC1=CCC1C2CC[C@@]2(C)C1CC[C@@H]2OC(=O)CCC(=O)O (some centres not stated)
    -10.0%, .
- C[C@]12CCC(=O)C=C1CCC1C2CC[C@@]2(C)C1CC[C@@]2(O)CC#N (some centres not stated)
    -0.4%, -3.2%
- O=c1[nH]c2c(c(=O)n1C1CCCCC1)CCC2
    -4.2%, -0.8%
- Cc1ccc(C(=O)C2CN(C)CC2C(=O)c2ccc(C)cc2)cc1 (configuration not stated)
    14.6%, 4.5%
- Cn1c(O)c(C(c2ccccn2)c2c(O)n(C)c(=S)[nH]c2=O)c(=O)[nH]c1=S
    -15.8%, -4.1%
- CC/C(=N\Nc1ccccc1)c1c(O)n(-c2ccc(OC)cc2)c(=O)[nH]c1=O
    -0.4%, -4.6%
- COc1cc(C)c(-c2nc(CN3C[C@@H]4C[C@@H](C3)c3cccc(=O)n3C4)c(C)o2)cc1C
    -28.4%, -6.2%
- Cn1c(O)c(Cc2cccc(Cl)c2Cl)c(=O)n(C)c1=O
    -20.2%, 0.1%
- CCCNS(=O)(=O)c1ccc(OCC(=O)N2CCN(Cc3ccccc3)CC2)cc1
    3.3%, -4.7%
- CCCCn1c(O)c(C(CC)=NCCN2CCCCC2)c(=O)[nH]c1=O
    -2.3%, -0.5%
- O=C1NC(=O)C(CCc2ccccn2)(Cc2ccc3c(c2)OCO3)C(=O)N1CCc1ccccc1 (configuration not stated)
    -2.1%, -1.1%
- CCCC[N+]12CCC(CC1)C(Cc1ccccc1)C2 (configuration not stated)
    -1.3%, -1.1%
- CC1(C)CN2C(c3ccc(Cl)cc3)N2C1 (configuration not stated)
    -7.2%, 3.1%
- C/C(=N\NP(=S)(c1ccccc1)c1ccccc1)c1ccc(O)cc1O
    -8.8%, -2.5%
- CC(C)C(=O)c1cn(Cc2ccc(C#N)cc2)c2ccccc12
    -10.5%, 8.7%

Next part:
Order of results – GCN5L2 inh, N370S GC mod
- CCOc1cc(C)cc2oc(=O)c3c(c12)CCCC3
    -4.2%, 6.5%
- CN(C)CCCN=Cc1c(O)n(Cc2ccco2)c(=O)[nH]c1=O
    -2.8%, 2.4%
- CCCCn1c(O)c(C(C)=Nc2ccc(OCC)cc2)c(=O)[nH]c1=O
    -10.0%, -16.3%
- N#Cc1ccc(Cn2cc(C(=O)c3ccco3)c3ccccc32)cc1
    -10.8%, 17.7%
- CN1C(=O)C(=Cc2coc3ccccc3c2=O)C(=O)N(C)C1=O
    -4.1%, 1.1%
- CN1[C@@H]2CC[C@H]1CC(OC(=O)C1C=Nc3ccccc31)C2 (some centres not stated)
    2.1%, -12.8%
- c1ccc(CCn2nnnc2CN2CCC(n3nnc4ccccc43)CC2)cc1
    -1.8%, -1.4%
- Cc1ccc(-c2nc3ccccc3c(=O)n2-c2nccs2)cc1
    0.0%, -24.0%
- COc1ccc(OC)c(N2C(=O)NC(=O)/C(=C\c3ccc([N+](=O)[O-])s3)C2=O)c1
    ?, -24.8%
- CCCCc1nn2c(=O)cc(COC(=O)Cc3ccccc3)nc2s1
    -0.1%, .
- COc1ccc(OC)c(/C=N/OC(=O)Nc2ccc(Cl)cc2)c1
    -10.8%, 5.0%
- O=C(CN1CC=C(c2ccccc2)CC1)NC(=O)NCc1ccccc1
    -0.6%, 2.1%
- C#CCN[C@H](C)Cc1ccccc1
    -0.2%&-5.1%, -1.3%&-1.1%
- CCOP(=O)(Cc1cc(C(C)=O)c(C)o1)OCC
    1.7%, -0.3%
- COc1cccc([C@@]2(O)CCCC[C@@H]2CN(C)C)c1
    -10.3%&0.6%&-7.9%, -7.1%&0.5%&17.7%
- Cc1ccc(S(=O)(=O)N[C@@H](CCCCN)C(=O)CCl)cc1
    -1.6%&-3.3%, 1.9%
- COc1cccc(C(=O)C2CCCN(C3CCOCC3)C2)c1 (configuration not stated)
    -1.2%, -3.0%
- Cc1ccccc1[N+](=O)[O-]
    -2.6%, -25.6%
- CCN(CC)CCN=Cc1c(O)n(Cc2ccco2)c(=O)[nH]c1=O
    -8.9%, 1.5%
- c1ccc2c(c1)CSc1ccccc1C2C1=NCCN1 (configuration not stated)
    2.1%, 1.9%

(further entries)
Order of results – GCN5L2 inh, N370S GC mod
- COc1cc(CN2CC3CC(C2)c2cccc(=O)n2C3)cc(OC)c1OC (configuration not stated)
    1.8%, 0.0%
- Oc1ccc2c3c1OC1[C@H](O)CC[C@@]4(O)[C@@H](C2)N(CC2CC2)CC[C@]314 (some centres not stated)
    -6.3%&-2.9%, .
- CC12CCCCC1=NC(c1ccc(Br)cc1)N2O (configuration not stated)
    2.3%, 4.6%[2.35 µM]
- CN(C)c1nc(-c2ccccc2)[n+](C)s1
    ?, 2.0%
- Cc1ccc(CN2CCCC(C(=O)c3sccc3C)C2)o1 (configuration not stated)
    -8.5%, -7.5%
- CCCCn1c(=O)c(C(=O)Nc2ccccn2)c(O)c2ccccc21
    -28.1%, -2.1%
- CCOc1ccc(NC(=O)c2ccc(NC(=O)COC(=O)Cc3ccccc3)cc2)cc1
    -13.6%, -16.4%
- Cc1c(N=Cc2c(O)n(Cc3ccc(F)cc3)c(=O)[nH]c2=O)c(=O)n(-c2ccccc2)n1C
    -4.7%[0.501 µM], 0.7%
- CN[C@@H](C)[C@@H](O)c1ccccc1
    -4.2%, 0.6%
- CCC1(OC(=O)c2ccccc2)CC(C)N(C)CC1C (configuration not stated)
    -9.6%, -9.9%
- CCOP(=O)(OCC)C(NC(=O)c1cccc(C)c1)C(Cl)(Cl)Cl (configuration not stated)
    1.7%, -18.7%
- CCOc1cc2c(cc1OCC)-n1cccc1C(c1ccc(F)cc1)NC2 (configuration not stated)
    -5.7%, -12.4%
- O=C(C1CCCO1)N1CCC2(CC1)OCCO2 (configuration not stated)
    4.5%, 2.3%
- Cn1c(O)c(/C=C2\C=Nc3ccccc32)c(=O)n(C)c1=O
    -8.8%, -0.9%
- O=C1CC[C@]2(O)[C@H]3Cc4ccc(O)c5c4[C@@]2(CCN3CC2CC2)[C@@H]1O5
    0.8%[21.4 µM], -5.7%[21.6 µM]
- CN(C)CCN=Cc1c(O)n(-c2cccc(C(F)(F)F)c2)c(=O)[nH]c1=O
    -1.7%, 5.8%
- C[C@]12CC[C@H](O)C[C@H]1CC[C@@H]1C2CC[C@]2(C)[C@@H](C3=CC(=O)OC3)[C@@H](O)C[C@]12O (some centres not stated)
    -1.2%, .
- Cc1ccccc1N1C(=O)NC(=O)/C(=C\c2cc(C)n(C)c2C)C1=O
    -9.9%, -0.4%
- CN[C@@H]1C[C@H](c2ccc(Cl)c(Cl)c2)c2ccccc21
    -9.8%, -14.8%
- CCN(CC)c1ccc(N=Cc2c(O)n(-c3ccc(OC)cc3)c(=O)[nH]c2=O)cc1
    -2.8%[0.501 µM], -10.8%

Three entries from above, set out differently:
Cc1ccc(CN2CCCC(C(=O)c3sccc3C)C2)o1 (configuration not stated)
- GCN5L2 inh: -8.5%
- N370S GC mod: -7.5%
CCCCn1c(=O)c(C(=O)Nc2ccccn2)c(O)c2ccccc21
- GCN5L2 inh: -28.1%
- N370S GC mod: -2.1%
CCOc1ccc(NC(=O)c2ccc(NC(=O)COC(=O)Cc3ccccc3)cc2)cc1
- GCN5L2 inh: -13.6%
- N370S GC mod: -16.4%

Further compounds:
Order of results – GCN5L2 inh, N370S GC mod
- O=C(/C=C/c1ccc2c(c1)OCO2)c1c(O)n(CCC2=CCCCC2)c(=O)[nH]c1=O
    29.1%, -3.3%
- COc1ccc2c3c([nH]c2c1)C(C)=NCC3
    ?, ?
- COc1ccc(CCNCc2ccccc2)cc1
    25.6%, -14.3%
- O=C(O)C(Cc1cnc[nH]1)NS(=O)(=O)c1ccc(Br)cc1 (configuration not stated)
    -2.7%, -13.6%
- COc1cccc(N2C(=O)NC(=O)/C(=C\c3cn(C)c4ccccc34)C2=O)c1
    -5.3%, -11.5%
- O=C(Nc1ccc(Cl)c(Cl)c1)c1ccco1
    -5.9%, -8.3%
- CCc1cccc(NC(=O)Cn2c(=O)oc3cc(S(=O)(=O)N4CCOCC4)ccc32)c1
    -8.0%, ?
- CCCCCCC(=O)N/N=C/c1c(O)n(C2CC2)c(=S)[nH]c1=O
    -5.8%, -4.7%
- O=C(Cc1ccc(N(CCCl)CCCl)cc1)NC(Cc1ccc(Cl)cc1)C(=O)O (configuration not stated)
    1.9%, -16.9%
- NCCc1nc2ccccc2s1
    -4.8%, -3.0%
- C[C@]12CCC3C(CC[C@H]4C[C@@H](O)CC[C@]34C)[C@@H]1CCC2=O (some centres not stated)
    -4.7%, -5.6%
- O=c1[nH]c(=O)n(Cc2ccc(F)cc2)c(O)c1C=Nc1ccc(Cl)cc1
    -10.4%, 1.5%
- Cc1ccc2c(c1)N(CCC(=O)N1CCC3(CC1)OCCO3)C(=O)C(C)O2 (configuration not stated)
    -5.3%, -6.0%
- Cc1ccc(CN2CCCC(C(=O)c3ccc4c(c3)OCO4)C2)cc1C (configuration not stated)
    -8.0%, -6.7%
- COC(=O)C(O)(c1ccc(NC(=O)Oc2ccccc2)cc1)C(F)(F)F (configuration not stated)
    0.1%, -0.7%
- C[C@]12CC[C@H](O)C[C@@H]1CC[C@H]1[C@H]2CC[C@]2(C)C(=O)CC[C@@H]12
    4.1%&3.2%&6.3%[21.4 µM], -2.8%&-0.8%&4.4%[21.6 µM]
- CN1CCCN(C(=O)COc2ccc(F)cc2F)CC1
    3.9%, -12.9%
- Cc1cc(=O)oc2cc(OCC(=O)N3C[C@H]4C[C@@H](C3)c3cccc(=O)n3C4)c(Cl)cc12
    1.0%, -20.4%
- FC(F)(F)c1ccc(NC2=NCCCS2)cc1
    1.5%, -7.9%
- CC1=C(C(=O)Nc2ccccc2)S(=O)(=O)CCO1
    1.1%, -0.9%

Continuation:
Order of results – GCN5L2 inh, N370S GC mod
- C[C@@H]1O[C@H](C[N+](C)(C)C)CS1
    ?, -2.0%
- Cc1ccccc1OCCCn1cc(C(=O)C(=O)N2CCOCC2)c2ccccc21
    0.0%, 0.8%
- CC(Cc1ccc(O)cc1)NCC(O)c1cc(O)cc(O)c1 (configuration not stated)
    -8.3%&-2.7%&9.3%, -0.1%&-15.3%&-6.7%
- C[C@@H]1CC2(CCCC[N+]2(C)C)C[C@H]1C
    -11.5%, -1.0%
- CC(C)(C)c1o[nH]c(=O)c1CC(N)C(=O)O (configuration not stated)
    -20.9%&-11.9%, -0.4%&-5.5%
- Cc1c(N=Nc2c(O)[nH]c(=O)[nH]c2=O)c(=O)n(-c2ccccc2)n1C
    -5.4%, -8.0%
- CN1CCN(c2cc(N3CCCC3)c([N+](=O)[O-])cc2F)CC1
    4.8%, -1.2%
- NC(=O)Cn1cc(C(=O)c2ccccc2F)c2ccccc21
    -0.5%, -10.2%
- CN(C)C(Cc1ccc(Cl)cc1)C(=O)c1ccccc1 (configuration not stated)
    -11.4%, 3.6%
- COc1ccc(CNC(=O)CCC(=O)N2C[C@H]3C[C@H](C2)c2cccc(=O)n2C3)cc1
    -4.6%, -12.0%
- C=CCN(CC=C)Cc1c[nH]c2ccccc12
    -7.5%, -5.2%
- CN1CCc2c(C#N)c(Cl)nc(Cl)c2C1
    -2.0%, 6.7%
- COc1ccc(OC)c2c1CCC1NCCOC21 (configuration not stated)
    -0.8%, 0.4%
- CCN(CCCl)Cc1ccccc1Br
    -3.6%, -4.9%
- C#CCN(C)C(C)Cc1ccccc1 (configuration not stated)
    -1.2%, 19.2%&0.5%
- O=C1CC[C@]2(O)C3Cc4ccc(O)c5c4C2(CCN3CC2CC2)C1O5 (some centres not stated)
    9.9%, -18.6%
- CNC1(c2ccccc2Cl)CCCCC1=O (configuration not stated)
    -9.8%&-11.2%, 5.9%
- Fc1cccc(F)c1-c1nc(-c2ccc(Cl)cc2)no1
    -1.6%, 2.4%
- CCOC(=O)c1c(C)n(Cc2ccco2)c2ccc(OC)cc12
    -6.5%, 30.1%
- COc1ccc(-c2nn(CCC#N)cc2C(=O)Nc2ccccc2Br)cc1
    -14.8%, -4.9%

More entries follow.
Order of results – GCN5L2 inh, N370S GC mod
- COc1ccccc1CN1CCN(C(=O)COc2ccc3ccccc3c2)CC1
    -2.7%, 0.7%
- CC(C)Cc1nc2cccnc2n1C1CCNCC1
    19.3%, .
- COc1cc(OC)c(OC)cc1/C=C1\C(=O)NC(=O)N(Cc2ccccc2)C1=O
    -10.5%, -17.4%
- Cc1ccccc1NC(=S)NC(NC(=O)CF)C(Cl)(Cl)Cl (configuration not stated)
    23.9%, 1.4%
- Cn1c(NN=O)nc2ccccc21
    2.6%, 6.8%
- Cc1cc(C=C2C(=O)N(C)C(=S)N(C)C2=O)c(C)n1C1CCCCC1
    2.5%, 0.0%
- C=CCN1C(=O)NC(=O)C(CCc2ccncc2)(CCc2ccncc2)C1=O
    1.2%, 0.0%
- Cn1c(O)c(C(=N)COc2cccc(Cl)c2)c(=O)n(C)c1=O
    -1.3%, 5.2%

Not all compounds are listed, and most or all hits are left out here.
